# Choline anaer gr: blocks anaerobic gram-negative growth on choline; Gram-negative bacterium anaerobic choline minimal medium, absorbance growth; active compounds read low; many inactives read as strong as hits in the columns shown; calls only; actives 0.2% (n = 55,000); AID 1963822;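 active = growth z-score on choline under -2 at 7 or 20 h with little or no fall on glycerol, limits in tiers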;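 also: stock transfer was 300 nL into about 50 µL; the organism is E. coli; final concentration not given here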
# Choline anaer gr early: further read-out of Choline anaer gr, marked with its call; z-score; measured here: choline growth z-score, timepoint 1;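 score of optical density at 7 h as mean of two plates; lower means less growth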
# * hit, by the source's call; i = inactive.
Choline anaer gr	Choline anaer gr early	smiles
i	0.12	CCC(=O)Nc1cccnc1-c1ccc(C(=O)Nc2cc(OC)cc(OC)c2)cc1
i	-0.27	Cc1cccc(CNC(=O)C(C)Oc2ccc(-c3cnc4ccccc4n3)cc2)c1 (stereo not given)
i	-0.94	CC(C)CNC(=O)c1ccc(N2C(=O)CCS2(=O)=O)cc1
i	0.64	CCOC(=O)c1c(C)[nH]c(C(=O)N2CCC(C(C)C(=O)N3CCN(c4ccccc4)CC3)CC2)c1C (stereo not given)
i	-0.48	CC1CCN(S(=O)(=O)c2nn(C)cc2C(=O)NCCN2CCOCC2)CC1
i	-0.15	O=C(CCC(=O)N1CCc2cc(S(=O)(=O)N3CCc4ccccc43)ccc21)N1CCCC1
i	0.36	CN(Cc1ccccc1)C(=O)[C@H](Cc1ccc2ccccc2c1)NC(=O)[C@@H]1C[C@@H](O)CN1C(=O)c1cn(C)c2ccccc12
i	-1.2	O=c1[nH]nc2ccc(Sc3ccccc3)nn12
i	-0.91	COCCNC(=O)C1CCCN1S(=O)(=O)c1cc(C(=O)OC)n(C)c1 (stereo not given)
i	1.8	Cc1cc(NC(C)C)n2nc(C(F)(F)F)c(-c3ccc(F)cc3)c2n1
i	-0.73	Cc1nc(N(C)C)ncc1C(=O)NCCC(C)C
i	-0.04	CC(C)NCc1cc(=O)n2[nH]c(-c3ccccc3)nc2n1
i	1.3	Cc1ccc(CN2CCN(C3CCN(S(=O)(=O)c4ccc(C)cc4)CC3)C(=O)C2=O)cc1
i	1.4	O=C1N(Cc2cc(F)cc(F)c2)c2ccccc2S(=O)(=O)N1Cc1ccccc1
i	-0.22	CCCn1ccnc(N2CCC(C)CC2)c1=O
i	-0.07	O=C(O)c1cc2cc3ccc(Cl)cc3nc2o1
i	0.32	CN(C(=O)c1cc2c([nH]c1=O)CC(C)(C)CC2=O)c1ccccc1
i	-0.88	COc1ccc(CNC(=O)c2c3c(nc4ccccc24)C(=O)N(C2CCCCC2)C3)c(OC)c1
i	-0.41	CCOc1cccc(C2Nc3ccccc3-n3c(-c4ccccc4)c4c(=O)n(C)c(=O)n(C)c4c32)c1O (stereo not given)
i	-0.08	O=C(O)c1ccc(-c2ccc3cc(C45CC6CC(CC(C6)C4)C5)c(O)cc3c2)cc1
i	-0.03	Cn1c(SCc2nc(-c3ccccc3)no2)nc2cc3c(cc2c1=O)OCO3
i	0.49	CCCNC(=O)Cn1c(C)cc(=O)n2nc(-c3ccc(Cl)cc3)nc12
i	1.5	O=c1n(Cc2c(F)cccc2Cl)nc2c(S(=O)(=O)N3CCc4ccccc4C3)cccn12
i	-0.86	O=C(c1cnc2ccccc2c1Nc1cccc(Cl)c1)N1CCOCC1
i	0	CCN(CC)CCNC(=O)c1cc(C)nc2c(-c3ccc(C)cc3)cccc12
i	-0.54	Cc1ccccc1CNC1=NCCNC12CCN(S(=O)(=O)c1cccs1)CC2
i	-0.38	CC(C)Cn1c(=O)c2sccc2n2c(=O)n(CC(N)=O)nc12
i	0.81	CC1CCN(S(=O)(=O)c2cccn(Cc3ccc(N4CCCC4=O)cc3)c2=O)CC1
i	0.59	O=S(=O)(c1cc(-c2noc(C3CC3)n2)cs1)N1CCN(c2cccc(Cl)c2)CC1
i	-0.49	COc1ccc(N2CCN(c3nccc4ccc(C(=O)Nc5ccc6c(c5)OCO6)cc34)CC2)cc1

# Three structures already listed, sorted by heavy-atom count, low to high:
Choline anaer gr	Choline anaer gr early	smiles
i	0.12	CCC(=O)Nc1cccnc1-c1ccc(C(=O)Nc2cc(OC)cc(OC)c2)cc1
i	0.64	CCOC(=O)c1c(C)[nH]c(C(=O)N2CCC(C(C)C(=O)N3CCN(c4ccccc4)CC3)CC2)c1C (stereo not given)
i	0.36	CN(Cc1ccccc1)C(=O)[C@H](Cc1ccc2ccccc2c1)NC(=O)[C@@H]1C[C@@H](O)CN1C(=O)c1cn(C)c2ccccc12

# Back to the main list, starting 5 compounds before the break.
Choline anaer gr	Choline anaer gr early	smiles
i	-0.54	Cc1ccccc1CNC1=NCCNC12CCN(S(=O)(=O)c1cccs1)CC2
i	-0.38	CC(C)Cn1c(=O)c2sccc2n2c(=O)n(CC(N)=O)nc12
i	0.81	CC1CCN(S(=O)(=O)c2cccn(Cc3ccc(N4CCCC4=O)cc3)c2=O)CC1
i	0.59	O=S(=O)(c1cc(-c2noc(C3CC3)n2)cs1)N1CCN(c2cccc(Cl)c2)CC1
i	-0.49	COc1ccc(N2CCN(c3nccc4ccc(C(=O)Nc5ccc6c(c5)OCO6)cc34)CC2)cc1
i	-0.66	COc1ccc(NC(=O)c2ccc(-n3nnc4cccnc43)cc2)cc1OC
i	0.45	CCC(C(=O)Nc1cc(F)ccc1F)n1nc(-c2ccccc2)c2c(c1=O)CCCC2 (stereo not given)
i	0.54	Cc1cc(C)c(C(=O)N2CCCC(C(=O)N3CCN(c4cccc(C)c4C)CC3)C2)[nH]1 (stereo not given)
i	0.55	O=C(Cc1ccc2c(c1)OCO2)N1CCC(n2nc(-c3ccccc3)oc2=O)CC1
i	-0.22	O=C(NCCCN1CCN(c2ccccc2F)CC1)C1CCCc2c1[nH]c1ccccc21 (stereo not given)
i	0.86	CCn1c(N2CCCC(C(=O)NCCCN3CCC(N4CCCCC4)CC3)C2)cc(=O)n(C)c1=O (stereo not given)
i	2	Cn1nc(COCc2ccccc2)c2c1CCN(S(=O)(=O)c1ccc3c(c1)CCCC3)C2
i	0.23	COc1ccc(-c2csc(Cc3nc(-c4ccc(Br)cc4)no3)n2)cc1OC
i	1.3	CCOC(=O)c1c(CSc2ccccn2)n(C)c2cc(Br)c(O)cc12
i	-0.03	O=C(NCCCN1CCCC1=O)C1CCN(c2cncnc2N2CCCCC2)CC1
i	0.56	CC[N+](C)(CC)CCOC(=O)C1c2ccccc2Oc2ccccc21
i	-0.38	CCCNS(=O)(=O)c1cc2c(cc1C)N(Cc1noc(C3CC3)n1)C(=O)CO2
i	-2.6	Cn1c(=O)n(CCN2CCOCC2)c(=O)c2c1nc1n2CCCN1c1ccc(Cl)cc1
i	0.82	O=S(=O)(c1ccc2c(c1)CCCC2)N1CCCC(c2nc(-c3ccc(Cl)cc3)no2)C1 (stereo not given)
i	-0.1	CC(C)(C)NC(=O)N1CCN(Cc2nc3cccnc3n2-c2ccccc2)CC1
i	0.56	O=c1c2nnc(SCc3ccc(F)cc3)n2ccn1-c1ccc(F)cc1
i	0.62	CCOc1ccc(-c2noc(-c3nn(-c4ccccc4)ccc3=O)n2)cc1
i	0.31	CCCCN1C(=O)c2oc3ccccc3c2OCC1(C)C(=O)NCc1ccccc1 (stereo not given)
i	-0.05	Cc1nc2c(c(N(C)CC(=O)N3CCCC3)n1)CCC2
i	-0.23	Cc1csc(-c2cc(S(=O)(=O)Nc3ccc(Cl)cc3)c(C)s2)n1
i	-0.45	Cc1csc(-n2[nH]c(C)c(CC(=O)Nc3ccc(F)cc3)c2=O)n1
i	1.2	O=C(Nc1ccccc1Br)Nc1cc(NC(=O)c2ccccc2)ccc1N1CCCC1
i	-2.5	Cc1nc(CNC(=O)[C@H]2CCCN2C(=O)Nc2ccc(C)c(Cl)c2)cs1
i	-1.3	NC(=O)c1sc(=S)n2c1[nH]c(=O)c1cc3c(cc12)OCO3
i	-0.22	CC(C)c1nnc(-c2coc(S(=O)(=O)N3CCN(C(C)C)CC3)c2)o1
i	0.22	CCn1c(CN(c2ccc(F)cc2)S(C)(=O)=O)nnc1SCC(=O)N(C)C1CCCCC1
i	0.18	COc1ccc(NC(=O)c2ccc3c(c2)CCN3C(C)=O)cc1
i	-0.52	CC(C)n1c(CN2CCOCC2)nc2cc(NC(=O)C3CCCCC3)ccc21
i	0.78	COc1cccc([C@H]2N(c3nccs3)C(=O)[C@@H]3CCCN32)c1
i	-0.77	CCc1onc(C)c1C1CCCN1Cc1cc(Br)ccc1O (stereo not given)

# The last 2 entries of the section before lead into the next:
Choline anaer gr	Choline anaer gr early	smiles
i	0.78	COc1cccc([C@H]2N(c3nccs3)C(=O)[C@@H]3CCCN32)c1
i	-0.77	CCc1onc(C)c1C1CCCN1Cc1cc(Br)ccc1O (stereo not given)
i	0.06	Cc1ccc(-c2ccc(CNc3ncn[nH]3)o2)cc1Cl
i	1.4	COc1ccc(-c2noc(-c3cn(Cc4ccc(NC(=O)Cc5ccccc5)cc4)cn3)n2)cc1
i	0.31	CCCc1cc(C2CCCN2Cc2ccc(CC)cc2)no1 (stereo not given)
i	0.26	CCOC(=O)OC(C)OC(=O)[C@@H]1N2C(=O)[C@@H](NC(=O)[C@H](N)c3ccccc3)[C@H]2SC1(C)C (stereo not given in full)
i	1.1	COCCCNC(=O)C1CCN(c2cc(Sc3cc(C)ccc3C)ncn2)CC1
i	0.94	CCOC(=O)c1c(C)nc2n(C)c3ccccc3n12
i	0.31	Cc1nnc2c(=O)n(CC(=O)Nc3ccc(C(C)C)cc3)c3ccccc3n12
i	-0.9	Cn1cc2c(n1)c(=O)n(Cc1ccc(Cl)cc1)c1nn(Cc3cc(F)cc(F)c3)c(=O)n21
i	-0.75	COc1ccc(N2CCN(S(=O)(=O)c3ccc(OC)c(-c4nc(C(C)C)no4)c3)CC2)cc1
i	0.27	CCN1C(=O)c2c(C(=O)NC(C)C)ncn2CC1(C)C(=O)NCCCOC(C)C (stereo not given)
i	0.39	O=S(=O)(c1cc(-c2nnc(C3CCC3)o2)co1)N1CCOCC1
i	-0.24	COc1cccc(NC(=O)CSc2nc(-c3sc(-c4ccc(Cl)cc4)nc3C)cc(=O)[nH]2)c1
i	-0.01	COc1cc(C)nc2ccc(C(=O)O)cc12
i	0.52	Cc1nn(Cc2noc(-c3cccc(F)c3)n2)c(C)c1S(=O)(=O)N1CCCC1
i	1.1	CCS(=O)(=O)N1CCCN(C2=NS(=O)(=O)C(c3cccc(Cl)c3)=C2C)CC1
i	-0.15	CCn1c(=O)c(=O)n(CC(=O)O)c2ccccc21
i	-1.8	Cc1cc(-c2nn3c(-c4cccc(F)c4)nnc3s2)c2ccccc2n1
i	0.17	O=C(CCc1nnc2ccc(NCc3ccc(F)cc3)nn12)NCC1CCCO1 (stereo not given)
i	-0.31	COc1ccc(CCn2cnc3scc(-c4ccccc4)c3c2=O)cc1OC
i	-0.94	C=CCNC(=O)c1sc(N2CCCCC2)nc1N
i	-1.2	O=c1cc(N2CCN(S(=O)(=O)c3ccc(F)cc3)CC2)nc2sc(-c3ccccc3)nn12
i	-0.98	CCc1ccc(S(=O)(=O)c2nnn3c2nc(NCC2CCCO2)c2cc(Cl)ccc23)cc1 (stereo not given)
i	0.13	CC(C)(C)c1ccc(S(=O)(=O)Nc2cc(C(=O)NC3CCCC3)ccc2N2CCNCC2)cc1
i	0.45	NC(=O)c1ccc(NC(=O)CSC2=Nc3ccccc3N=C(c3ccccn3)C2)cc1
i	-1	Cc1sc(-c2noc(C3CCC3)n2)cc1S(=O)(=O)N1CCC(C(=O)N2CCOCC2)CC1
i	-1.8	C=CCc1ccccc1OCCCn1c(CN2CCOCC2)nc2ccccc21
i	0.51	Cc1ccc(C)c(N2CCN(S(=O)(=O)c3cc(-c4cc(C(F)(F)F)on4)sc3C)CC2)c1
i	0.07	O=C(c1cc(-c2ccncc2)n(-c2ccc(F)cc2)n1)N1CCN(c2ccc(Cl)cc2)CC1
i	-1.7	CC(=O)Nc1c2n(c3ccc(F)cc13)CC(C)(C(=O)NC1CCCC1)N(C1CCC(C)CC1)C2=O (stereo not given)
i	0.31	O=c1c(Nc2ccc(Cl)cc2)c(-c2ccccc2)c1=O

Choline anaer gr	Choline anaer gr early	smiles
i	1.4	Cn1c(=O)c2nc(S(=O)(=O)CCC(=O)Nc3ccc(F)cc3F)n(C)c2n(C)c1=O
i	0.78	Cn1cc(C(=O)Nc2ccc(Cl)cc2)c2[nH]c(=O)n(-c3ccc(Cl)cc3)c(=O)c21
i	-0.27	Cc1ccc(C)c(CSc2nc3cc(C(=O)NC4CCCC4)ccc3c(=O)n2CC2CCCO2)c1 (stereo not given)
i	0.85	Cc1ccccc1-c1ccc(N2CCCC(C(=O)NCc3ccc4c(c3)OCO4)C2)nn1 (stereo not given)
i	-1.6	Cc1[nH]nc2c1C(c1ccc(C(C)(C)C)cc1)NC2=O (stereo not given)
i	-0.7	CCc1ccc(S(=O)(=O)N2CCc3nc(N4CCCCC4)ncc3C2)cc1
i	-0.75	COC(=O)c1ccc(=O)c2nc3/c(=C/O)c(O)cc(=O)c3[nH]c12
i	0.06	O=C(CSc1nc(N2CCc3ccccc3C2)nc2ccccc12)Nc1ccccc1
i	-0.36	CC(C)CNC(=O)CN1c2ccccc2NC2=C(C(=O)CC(C)(C)C2)C1c1ccccc1 (stereo not given)
i	0.05	CCSc1nc2ccc(NS(=O)(=O)c3ccc4c(c3)OCCO4)cc2s1
i	0.63	CCn1c(=O)c(SCC(=O)NC2CCCC2)nc2ccccc21
i	0.75	O=C(NCC1CCCO1)c1ccc(Cn2c(SCc3ccc(F)cc3)nc3cccnc32)cc1 (stereo not given)
i	0.89	Nc1nc(SC/C=C/c2ccccc2)nc2sc3c(c12)CCC3
i	0.83	CN(C)c1ccc(CNc2ncnc3c(-c4ccccc4)noc23)cc1
i	-2.1	CCn1nnc2c(NCCCn3ccnc3)ncnc21
i	-0.9	Cn1cc(C(=O)Nc2ccc(Br)cc2F)c2[nH]c(=O)n(-c3ccccc3)c(=O)c21
i	-0.95	O=C(Nc1ccc(F)cc1)c1nnc(CNC(=O)C2CCC2)s1
i	0.33	CCOc1ccc(-n2nnc(C(=O)Nc3ccc(S(N)(=O)=O)cc3)c2C)cc1
i	0.82	Cc1cccc(N(C)C(=S)Oc2ccc3ccccc3c2)c1
i	0.37	Cc1cc(C2CCCN2C(=O)NC2CCCC2)no1 (stereo not given)
i	-1	Cc1onc(-c2ccccc2Cl)c1C(=O)Nc1ccc2c(c1)sc(=O)n2C
i	0.43	O=C(CC1CCN(S(=O)(=O)c2ccc(Br)s2)CC1)NC1CC1
i	0.46	O=C(NCc1ccc2c(c1)OCO2)C1CCN(c2nc3ccccc3o2)CC1
i	-1.6	O=C(C1CC(c2ccccc2F)=NO1)N1CCCC1 (stereo not given)

# A portion of the library; the hit share may differ from the screen's.
